# Six1-Eya2 blk = blocks human Six1 binding to Eya2. 360,000 compounds, 0.56% hits. activity change, % (concentration not given with the values). Q15475+O00167. AlphaScreen GST-Six1/His-Eya2 binding, biochemical; active compounds read low; control for the full effect not named in the record; in the data active = activity change below about -65%; inconclusive = about -30% to -65%; inactive = above about -30%; also: % is scaled to controls: 0 for no effect and ±100 for the full control effect
#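 GST-Six1 + His-Eya2 (5X stock: 250/500 nM); Tris pH 8.0, 300 mM NaCl, 0.05% BSA, 0.02% Tween 20; GSH donor/Ni acceptor beads; 1 h 37 °C dark; AlphaScreen readout.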
# D2 PAM = positive allosteric modulators of human D2 dopamine receptor. P14416. DiscoveRx D2 beta-arrestin cells, luminescence, 90 min; 100% = 57 uM dopamine signal. potentiation, % (no concentration beside the values). 360,000 compounds, 0.23% hits. AID 624464; active = potentiation of 50% or more; inconclusive = 30% to 50%; inactive = 30% or less;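 also: compound concentration not given in the record; tested on top of an EC20 dose of dopamine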
# Target sequence (P14416 whole entry, looked up): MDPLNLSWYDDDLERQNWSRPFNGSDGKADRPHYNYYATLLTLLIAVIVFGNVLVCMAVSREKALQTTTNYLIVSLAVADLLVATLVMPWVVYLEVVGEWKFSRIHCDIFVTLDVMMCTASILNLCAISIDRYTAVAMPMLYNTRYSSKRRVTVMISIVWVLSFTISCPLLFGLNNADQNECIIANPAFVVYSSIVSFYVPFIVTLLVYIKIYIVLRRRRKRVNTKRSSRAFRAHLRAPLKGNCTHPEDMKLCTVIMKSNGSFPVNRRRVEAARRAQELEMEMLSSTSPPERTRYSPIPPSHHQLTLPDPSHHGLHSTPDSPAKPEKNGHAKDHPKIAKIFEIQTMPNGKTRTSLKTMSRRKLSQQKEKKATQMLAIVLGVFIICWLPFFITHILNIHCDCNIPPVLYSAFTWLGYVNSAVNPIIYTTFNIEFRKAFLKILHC
#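 D2 cells co-treated with compound plus 50 nM dopamine (EC20) for 90 min at 37 deg C to detect potentiation. Beta-arrestin recruitment was read as enzyme-fragment luminescence after 1 h at ambient temperature. Full response was set by 57 uM dopamine.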
# gsp agonist = activates gsp, the McCune-Albright syndrome mutation; gsp mutant cells, cAMP HTRF, 30 min; control for the full effect not named in the record; Potency, µM (top dose mostly 76.9 µM), for inactives: at the top dose activation (cAMP increase), usual class: activators; 340,000 compounds, 0.13% hits; active = well fitted activation curve with a large enough effect; inconclusive = small, poorly fitted or top-dose-only effect, or another doubt; inactive = no such curve, though single readings can be large or run the other way; cell line not stated here;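 also: phosphodiesterase inhibitor Ro 20-1724 added with compounds to block cAMP breakdown; potency is read from the fitted curve at half-maximal effect; nearly all actives have a fitted effect of over 60% in size; about a fifth of the inactives were tested at one dose only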
#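 Cells in DMEM/10% FBS with G418 were pretreated with compounds in DMSO plus […] (300 uM stock) for 30 min at 37C. cAMP was measured by HTRF (cAMP-d2 plus anti-cAMP antibody-K) after 30 min at room temperature.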
# gsp antagonist = antagonizes gsp, the McCune-Albright syndrome mutation; AID 624288; gsp-mutant cells, cAMP HTRF, 30 min; control for the full effect not named in the record; Potency, µM (top dose mostly 76.9 µM), for the others: at the highest dose activity change, negative = inhibition, most hits filed as inhibitors; 340,000 compounds, 0.4% hits; active = falling curve of any shape with a large fitted effect; inconclusive = falling curve, mostly with a smaller effect; inactive = flat or rising curve; cell line not stated here;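 also: intracellular cAMP measured with PDE inhibitor Ro 20-1724 present during compound exposure; potency is read from the fitted curve at half-maximal effect; % is scaled to controls: 0 for no effect and ±100 for the full control effect; nearly all actives have a fitted effect of over 65% in size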
#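 HTRF cAMP read-out (cAMP-d2 plus anti-cAMP antibody-K in lysis buffer, 30 min RT). Before lysis, cells are exposed to compounds with […] for 30 min at 37C in DPBS containing Ca/Mg, BSA and Tween 20.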
# CtBP-E1A blk = CtBP/E1A binding inhibition. AlphaScreen GST-E1A/His-CtBP binding, 1536-well; active compounds read low; control for the full effect not named in the record. activity change, % (test concentration not listed). 340,000 compounds, 0.49% hits. AID 651724; in the data active means activity change below about -65%; inconclusive means about -30% to -65%; inactive means above about -30%; also: % is scaled to controls: 0 for no effect and ±100 for the full control effect
#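 GST-E1A and His-tagged CtBP (125 nM each as 5X stock) were preincubated with pin-transferred compound for 2 h at 37 °C in the dark, then glutathione donor and nickel acceptor beads were added for 1 h before AlphaScreen reading.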
# D2 ag = agonists of human D2 dopamine receptor (beta-arrestin); P14416; DiscoveRx PathHunter D2 beta-arrestin, luminescence, 90 min; 100% = 57 uM dopamine signal; activation, % (test concentration not listed); 360,000 compounds, 0.084% hits; AID 624465; in the data active = activation above about 40%; inconclusive = about 15% to 40%; inactive = below about 15%; also: compound concentration not given in the record; the text of the record calls up to 30% inactive
#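 Agonist mode: compounds alone added to overnight-plated D2 PathHunter cells for 90 min at 37 C, with 57 uM final dopamine (EC100) defining full response. Beta-arrestin recruitment detected by chemiluminescent reagent, read after 1 h at ambient temperature.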
# * marks the source's active call; other numbers are inactive results; ? = inconclusive; · = no result given; [ ] = another dose, or the depositor's remark.
SMILES,Six1-Eya2 blk,D2 PAM,gsp agonist,gsp antagonist,CtBP-E1A blk,D2 ag
Cc1ccc(Cn2ccc(NC(=O)c3noc4c3CCCC4)n2)cc1,7,-5,19%,6%,4,-1.4
Cc1ccccc1CCN1CCCC(CN(C)C(=O)c2ccc3ncccc3c2)C1 (centres undefined),-7,-25,-4%,2%,2,1.5
C[C@H]1CN([C@@H](C)CO)C(=O)c2cc(Br)cnc2O[C@H]1CN(C)C(=O)c1cnccn1,5,·,11µM*,·,-11,-2.2
Cc1cccc(NC(=O)C2CCCN2C(=O)OCC(C)C)c1 (centres undefined),7,-3,16%,10%,-2,0.3
COc1ccc(C2/C=C\CN(C(=O)OCc3ccccc3)CC(=O)N2Cc2ccc(F)cc2)cc1 (centres undefined),28,-1,·,-22%,1,-4.5
CC(=O)Nc1cccc(C(=O)/C=C/c2ccc(F)cc2)c1,-2,-6,-14%[15.4 µM],1%,4,-0.7
OC(COCc1ccco1)CN1CCN(C(c2ccccc2)c2ccccc2)CC1 (centres undefined),0,-5,-20%,5%,-16,-0.6
CC(Oc1ccccc1F)C(=O)NNC(=O)c1cccc(S(=O)(=O)N2CCN(C)CC2)c1 (centres undefined),0,-2,-40%[inhibitor],-13%,·,2.7
COc1ccc(N(CC(=O)NC(C)c2ccccc2)S(=O)(=O)c2c(C)noc2C)cc1 (centres undefined),5,-9,-14%,13%,-2,-4.6
Cc1c(C(=O)N2CCN(c3ccccc3F)CC2)sc2ncn(CC(=O)N3CCOCC3)c(=O)c12,2,-8,-3%,2%,4,2.3
COC(=O)c1ccc(C)c(NC(=O)CCCN2C(=O)NC(C)(C)C2=O)c1,6,0,11%,0%,-3,0.4
CCc1nc2ccc(C(=O)NCCCn3ccnc3)cn2c1N(C)Cc1cccs1,-4,-4,·,·,-8,3.0
O=C(NCCS(=O)(=O)N1CCN(c2ccccc2)CC1)c1ccccc1F,5,3,15%[15.4 µM],-3%,1,1.7
FC(F)(F)c1ccc(-c2nnc(-c3cccnc3)o2)cc1,2,-7,10%[15.4 µM],-3%,1,3.0
COc1cc(CNc2ccc(N3CCCC3)cc2)ccc1OCc1ccccc1F,?,2,-49%[inhibitor],-20%,?,1.3
Cc1cc(C)cc(N(CCC#N)C(=O)COC(=O)c2nc3nc(C)cc(C)n3n2)c1,6,-10,-27%,0%,-11,1.6
Cc1nn(-c2cccc(Cl)c2)c(Cl)c1/C=N/NC(=O)c1cccs1,-3,-1,16%,7%,8,-4.7
CC(=O)c1ccc(Cc2ccc(C(C)=O)cc2)cc1,-3,-9,-3%[15.4 µM],-5%,11,-1.9
O=C(COC(=O)c1cc([N+](=O)[O-])ccc1N1CCOCC1)c1ccccc1Cl,-9,-2,11%,-6%,-12,-6.7
CSc1cccc(NC(=O)CC(C)n2ccnc2)c1 (centres undefined),3,-14,3%[15.4 µM],0%,3,1.8
Cc1ccc(F)cc1NC(=O)c1cccc2nccnc12,0,-13,-27%,4%,7,-2.9
COc1ccc(N2C(=O)c3ccc(C(=O)OC(C)C)cc3C2=O)cc1,22,-3,-20%,32%,9,-1.6
CC(C(=O)O)n1c2ccccc2c2cn[nH]c(=O)c21 (centres undefined),18,-16,-15%,20%,9,-4.6
CCCCc1nnc(NC(=O)CN2C(=O)C3CCCCC3C2=O)s1 (centres undefined),4,13,?,-7%,-3,-1.4
COc1ccc(NC(=O)c2cc(-c3ccc(F)cc3OC)n[nH]2)cc1OC,7,-8,·,·,?,0.5
S=C(NCCc1ccccc1)N/N=C/c1c(Cl)cccc1Cl,-11,-28,0%,11%,-5,-1.5
Cc1cc(=O)c2c(N(C)C)cccc2[nH]1,-25,-19,23%,·,-1,-1.9
O=C(NC1CCS(=O)(=O)C1)c1ccc(Br)o1 (centres undefined),9,-10,1%[15.4 µM],8%,-5,-4.6
CCCCCN(C(=O)CCC(=O)OCC(=O)NCc1cccc(OC)c1)c1c(N)n(CCCC)c(=O)[nH]c1=O,-1,0,-53%[inhibitor],10%,2,0.6
Cc1ccc(S(=O)(=O)N2CC=C(c3ccc(F)cc3)CC2)cc1,17,-13,21%,-8%,23,-4.9

# Grouped by structure, the entries above containing four or more nitrogen atoms
SMILES,Six1-Eya2 blk,D2 PAM,gsp agonist,gsp antagonist,CtBP-E1A blk,D2 ag
Cc1ccc(Cn2ccc(NC(=O)c3noc4c3CCCC4)n2)cc1,7,-5,19%,6%,4,-1.4
C[C@H]1CN([C@@H](C)CO)C(=O)c2cc(Br)cnc2O[C@H]1CN(C)C(=O)c1cnccn1,5,·,11µM*,·,-11,-2.2
CC(Oc1ccccc1F)C(=O)NNC(=O)c1cccc(S(=O)(=O)N2CCN(C)CC2)c1 (centres undefined),0,-2,-40%[inhibitor],-13%,·,2.7
Cc1c(C(=O)N2CCN(c3ccccc3F)CC2)sc2ncn(CC(=O)N3CCOCC3)c(=O)c12,2,-8,-3%,2%,4,2.3
CCc1nc2ccc(C(=O)NCCCn3ccnc3)cn2c1N(C)Cc1cccs1,-4,-4,·,·,-8,3.0
Cc1cc(C)cc(N(CCC#N)C(=O)COC(=O)c2nc3nc(C)cc(C)n3n2)c1,6,-10,-27%,0%,-11,1.6
Cc1nn(-c2cccc(Cl)c2)c(Cl)c1/C=N/NC(=O)c1cccs1,-3,-1,16%,7%,8,-4.7
CCCCc1nnc(NC(=O)CN2C(=O)C3CCCCC3C2=O)s1 (centres undefined),4,13,?,-7%,-3,-1.4
CCCCCN(C(=O)CCC(=O)OCC(=O)NCc1cccc(OC)c1)c1c(N)n(CCCC)c(=O)[nH]c1=O,-1,0,-53%[inhibitor],10%,2,0.6

# Next part:
SMILES,Six1-Eya2 blk,D2 PAM,gsp agonist,gsp antagonist,CtBP-E1A blk,D2 ag
CC(C)Nc1nc(NCCN2CCNC2=O)c2sccc2n1,6,-8,·,·,2,-1.3
COc1ccccc1-c1cc(C(=O)NCc2ccco2)no1,-9,-18,-2%,4%,-4,-2.0
COc1ccc(C(=O)N/N=c2\oc3ccccc3cc2C(=O)NCc2ccccc2)cc1,-8,-20,-1%,?,17,-2.0
CCOC(=O)c1c[nH]n2c(=O)cc(C)nc12,2,-1,-5%[15.4 µM],11%,5,-2.9
COc1ccccc1CNC(=O)CSC(=S)N1CCCC1,3,-7,-6%,10%,5,-1.6
Cc1cc(C)n(-c2ccc(C(=O)Nc3cccc([N+](=O)[O-])c3)cc2)n1,-12,-9,-8%[15.4 µM],-22%,·,-0.3
COC(=O)C1=C(CS(=O)(=O)c2ccccc2)NC(=O)NC1c1ccccc1 (centres undefined),3,-4,15%,9%,2,-9.2
CC(C)(C)c1ccc(C(=O)NCCCN2CCN(CCCNC(=O)c3ccc(C(C)(C)C)cc3)CC2)cc1,0,-11,0%,1%,-23,4.7
Cc1cc2ccccc2c(=O)n1CC(=O)NCc1ccco1,2,1,0%,7%,0,-0.8
COc1cc(Cl)c(C)cc1NC(=O)CCN1C(=O)NC(C)(C)C1=O,4,0,11%[15.4 µM],1%,1,2.0
Nc1c(C(=O)Nc2ccc3c(c2)OCCO3)nnn1Cc1ccc(Cl)cc1,-2,4,?,16%,3,2.4
Cc1ccc(/C=C/c2nc3ccccc3c(=O)[nH]2)cc1,-8,-13,?,5%,-12,-3.9
COc1ccc(-c2c(NCCc3ccccc3)c(=O)c2=O)cc1,-10,-14,15%[15.4 µM],3%,1,-4.4
CC1(C)Cc2cccc(Oc3ccc(S(=O)(=O)N4CCCC4)cn3)c2O1,-16,-6,-9%[15.4 µM],-15%,12,-1.2
Nc1cccc(Nc2ccccc2)c1,1,-9,-4%,1%,-2,1.1
COc1ccc(C(=O)Oc2c(CN3CCOCC3)cc(Cl)c3cccnc23)cc1OC,-11,-1,1%,-19%,-1,-6.0
COc1ccc(-c2cc(C(=O)N3CCN(c4ncccn4)CC3)c3ccccc3n2)cc1OC,3,?,-30%[inhibitor],-1%,6,?
CN(C(=O)c1ccc(NC(=O)Cc2ccc(NC(=O)C3CCN(S(=O)(=O)c4cccc([N+](=O)[O-])c4)CC3)cc2)cc1)C1CCCC1,-5,2,·,8%,-7,1.2
C=CCN1C(=O)C2(C(C#N)=C(N)Oc3n[nH]c(CCC)c32)c2ccccc21 (centres undefined),0,19,-15%,-17%,3,1.9
COc1cc(NC(=O)C2CCC(CNS(=O)(=O)c3csc(C(N)=O)c3)CC2)cc(OC)c1 (centres undefined),-8,-5,-3%,5%,·,-9.6
O=C(COc1ccccc1)Nc1nnc(-c2ccc(Cl)cc2)o1,?,5,-30%[inhibitor],0%,-23,-0.1
COc1ccccc1NC(=O)Cn1nc(C)n2cccc2c1=O,14,-4,-9%,-1%,·,4.4
CCc1nnc(NC(=O)C(C)C)s1,0,17,-2%,11%,-1,-3.1
O=S(=O)(Nc1ccccn1)c1cnc(Cl)c(Br)c1,2,-19,0%,-6%,1,-1.4
COc1cc(Cl)ccc1OC1(C)CCN(Cc2cccn2-c2nccs2)C1 (centres undefined),-27,-19,·,·,-20,-1.2
CC(=O)c1c(C)[nH]c(C(=O)NCCN2CCC(C)CC2)c1C,-8,-24,9%,3%,-1,-5.8
CCCn1c(=O)c2ccccc2n2c(SCc3c(C(=O)OCC)oc4ccccc34)nnc12,-1,-3,22%,?,4,-2.7
Cc1cc(N2CCOCC2)ccc1/C=C1\NC(=O)N(Cc2ccccc2F)C1=O,-2,-12,-93%[inhibitor],4%,·,9.2
Cc1cccc2sc(NNC(=O)c3ccc(S(=O)(=O)N4CC(C)CC(C)C4)cc3)nc12 (centres undefined),0,19,-87%[inhibitor],-3%,-1,7.8
COc1ccc(-n2c(C)cc(/C=C3/SC(=S)N(C)C3=O)c2C)cc1,-6,-6,-5%,11%,2,-0.2
CC(=O)Nc1ccc(C(=O)OCC(=O)NC2CCCCCC2)cc1,-17,-10,0%,·,-8,-1.3
CC1CCCC(NC(=O)CSC2CCCCC2)C1C (centres undefined),2,-20,15%[15.4 µM],-26%,8,-2.6
COC(=O)CNC(=O)C1Cc2ccccc2CN1S(=O)(=O)c1ccc(F)cc1 (centres undefined),5,-4,11%,-4%,·,-1.0
C/C(=N\Nc1c(F)c(F)c(Br)c(F)c1F)c1ccncc1,-4,-18,-4%[15.4 µM],-26%,-21,-4.5
CCOc1ccc(NC(=O)c2ccc(-c3csc(C)n3)cc2)cc1,2,-2,-1%[15.4 µM],4%,-7,3.1

# Bioassay records (PubChem)

# Hits appear at their usual frequency; overall some 1.4% were active at least once.
